NPR1 antag = human Npr1 receptor antagonism | AID 1347048 | Potency, µM (top dose mostly 46.3 µM), for inactives: at the top dose activity change, negative = inhibition, usual class: inhibitors | actives 1.6% (n = 76,000) | P16066 | HEK293 hNpr1 GloSensor cGMP, ANP-stimulated luminescence; active = well fitted inhibition curve with a large enough effect; inconclusive = small, poorly fitted or top-dose-only effect; inactive = no such curve, though single readings can be large or run the other way;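 also: nearly all actives have a fitted effect of over 60% in size; nearly all hits also lower the signal before the agonist is added; a reference antagonist and vehicle were the controls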
Target sequence (P16066 whole entry, looked up): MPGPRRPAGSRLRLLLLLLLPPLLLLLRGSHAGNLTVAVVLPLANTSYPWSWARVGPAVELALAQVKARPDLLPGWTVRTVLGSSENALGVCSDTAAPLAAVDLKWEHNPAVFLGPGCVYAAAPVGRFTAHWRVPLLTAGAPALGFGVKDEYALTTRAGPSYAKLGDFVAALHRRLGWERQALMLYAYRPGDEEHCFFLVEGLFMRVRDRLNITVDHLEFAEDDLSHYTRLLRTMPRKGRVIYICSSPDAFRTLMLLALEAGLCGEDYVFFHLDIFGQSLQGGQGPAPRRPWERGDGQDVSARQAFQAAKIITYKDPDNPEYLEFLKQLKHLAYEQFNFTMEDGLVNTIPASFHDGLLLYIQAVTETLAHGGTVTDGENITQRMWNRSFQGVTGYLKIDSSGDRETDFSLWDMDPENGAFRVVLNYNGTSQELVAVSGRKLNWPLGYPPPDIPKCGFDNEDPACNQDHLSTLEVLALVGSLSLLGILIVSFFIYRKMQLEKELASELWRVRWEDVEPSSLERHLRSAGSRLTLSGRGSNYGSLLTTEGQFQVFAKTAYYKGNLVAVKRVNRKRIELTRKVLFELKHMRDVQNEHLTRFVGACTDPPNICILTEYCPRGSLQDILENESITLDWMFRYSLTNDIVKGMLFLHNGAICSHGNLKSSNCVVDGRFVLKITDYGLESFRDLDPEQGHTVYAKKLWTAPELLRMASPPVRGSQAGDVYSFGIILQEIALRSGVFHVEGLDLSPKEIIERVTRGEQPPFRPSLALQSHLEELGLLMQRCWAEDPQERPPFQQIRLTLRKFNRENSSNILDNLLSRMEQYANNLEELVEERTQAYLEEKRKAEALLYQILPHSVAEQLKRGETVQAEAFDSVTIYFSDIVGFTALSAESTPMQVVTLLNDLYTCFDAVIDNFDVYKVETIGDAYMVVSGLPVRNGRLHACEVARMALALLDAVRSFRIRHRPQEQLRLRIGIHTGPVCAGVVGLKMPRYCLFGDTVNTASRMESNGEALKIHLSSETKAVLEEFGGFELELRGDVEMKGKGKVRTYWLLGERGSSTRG
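HEK293 cells stably expressing human Npr1 and cGMP GloSensor pGS-40F, loaded 2 h with 2% GloSensor reagent, given compound 30 min at room temperature. Luminescence read before and 20 min after 0.1 nM hNppA.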
Starred values were filed as active, the others as inactive; u = inconclusive; [ ] = dose if it differs, or a comment. % is scaled to controls: 0 for no effect and ±100 for the full control effect; potency is read from the fitted curve at half-maximal effect. Some of the compounds tested. The share of hits here may be higher or lower than overall.

SMILES | NPR1 antag
COCc1nc(C2CC(N)C2)cc(N2CCCN3CCC[C@H]3C2)n1 (some centres not stated) | 1%
CC(=O)NC[C@H]1C[C@@H]2CCN1C[C@@H]2c1cc(-c2ccccc2)nc(C)n1 | 1%[70.6 µM]
COc1ccc(OC)c(S(=O)(=O)N2[C@H]3CC[C@@H]2c2cnc(C)nc2C3)c1 | 4%
COc1cccc([C@H]2CN(C(=O)c3cnc(C)cn3)[C@@H]3C4CCN(CC4)[C@H]23)c1 | 0%
Cc1ccc(CN2C[C@@H]3C(C(N)=O)=NO[C@@H]3C2)nc1 | 8%[70.6 µM]
O=C(c1cccs1)N1C[C@@H]2C[C@H](C1)c1c(-c3ccc(Cl)cc3)ccc(=O)n1C2 | 6%[70.6 µM]
C#C[C@H]1CN2CC[C@H]1C[C@@H]2CNC(=O)C1CC1 | 4%[70.6 µM]
O=C(NC[C@H]1C[C@@H]2CCN1C[C@@H]2CN1CCN(c2ccc(F)cc2)CC1)c1ccccc1 | 4%
Cc1nc(-c2cccs2)cc([C@H]2CN3CC[C@H]2C[C@@H]3CNC(=O)C2CCC2)n1 | -10%[70.6 µM]
COc1cc2c(cc1OCC1CC1)NC(=O)C21CCN(C(C)=O)CC1 | 3%[70.6 µM]
c1cc(CN2C[C@H](c3ccc4c(c3)OCO4)[C@@H]3[C@H]2C2CCN3CC2)ccn1 | 0%
O=C(NC[C@H]1C[C@@H]2CCN1C[C@@H]2CN1C[C@@H]2C[C@H](C1)c1cccc(=O)n1C2)c1ccccc1 | 4%
Cc1nn(C)c(C)c1S(=O)(=O)N1[C@H]2CC[C@@H]1c1cnc(-c3ccc(F)cc3)nc1C2 | u
COc1ccc(CC(=O)N2[C@H]3CC[C@@H]2c2cnc(-c4ccc(F)cc4)nc2C3)cc1OC | -29%
COc1ccc(NC(=O)NC[C@H]2C[C@@H]3CCN2C[C@@H]3c2cc(-c3cccs3)nn2C)cc1 | 3%
CN(Cc1ccccc1)Cc1cn(C[C@H]2C[C@@H]3CCN2C[C@@H]3C(=O)Nc2ccccc2)nn1 | 0%
COc1cc2c(cc1OC1CCCC1)NC(=O)C21CCN(Cc2cccc(O)c2)CC1 | -9%[70.6 µM]
N#Cc1ccccc1S(=O)(=O)N1C[C@@H]2C[C@H](C1)c1c(-c3ccccc3F)ccc(=O)n1C2 | -11%
COc1cc2c(cc1OCc1ccccc1)NC(=O)C21CCN(Cc2nccn2C)CC1 | 4%[70.6 µM]
CCCCc1cn(C[C@H]2C[C@@H]3CCN2C[C@@H]3C(=O)NC2CCCCC2)nn1 | 3%[70.6 µM]
COc1cc2c(cc1OCC1CC1)NC(=O)C21CCN(C(=O)Cc2ccccc2)CC1 | -17%[70.6 µM]
CCCNC(=O)N1[C@H]2CC[C@@H]1c1cnc(-c3ccc(F)cc3)nc1C2 | u
COc1cc2c(cc1CCc1ccccc1)N(C(=O)c1ccc3[nH]ccc3c1)CC21CCN(C(C)=O)CC1 | -23%
CC(C)CN1Cc2ccccc2-n2ccnc2C12CCN(C(=O)c1ccccc1F)CC2 | 3%

Among those listed so far, 6 have fluorine:
SMILES | NPR1 antag
O=C(NC[C@H]1C[C@@H]2CCN1C[C@@H]2CN1CCN(c2ccc(F)cc2)CC1)c1ccccc1 | 4%
Cc1nn(C)c(C)c1S(=O)(=O)N1[C@H]2CC[C@@H]1c1cnc(-c3ccc(F)cc3)nc1C2 | u
COc1ccc(CC(=O)N2[C@H]3CC[C@@H]2c2cnc(-c4ccc(F)cc4)nc2C3)cc1OC | -29%
N#Cc1ccccc1S(=O)(=O)N1C[C@@H]2C[C@H](C1)c1c(-c3ccccc3F)ccc(=O)n1C2 | -11%
CCCNC(=O)N1[C@H]2CC[C@@H]1c1cnc(-c3ccc(F)cc3)nc1C2 | u
CC(C)CN1Cc2ccccc2-n2ccnc2C12CCN(C(=O)c1ccccc1F)CC2 | 3%

More records:
SMILES | NPR1 antag
O=C(Nc1ccccc1)OC[C@H]1C[C@@H]2CCN1C[C@@H]2c1cc(C2CCCC2)nc(-c2ccncc2)n1 | u
CC[C@H]1CN2CC[C@H]1C[C@@H]2CNS(=O)(=O)c1cccc(F)c1 | 0%[70.6 µM]
Cc1cc(C(=O)N2CCC3(CC2)NCc2ccccc2-n2ccnc23)nn1C | -2%
C=C[C@H]1CN2CC[C@H]1C[C@@H]2CNC(=O)Nc1ccc(C(C)=O)cc1 | -1%[70.6 µM]
C#C[C@H]1CN2CC[C@H]1C[C@@H]2CNS(=O)(=O)Cc1ccccc1 | 3%[70.6 µM]
C#CCN(C)C[C@H]1CN2CC[C@H]1C[C@@H]2CNC(=O)Nc1ccc(OC)cc1 | 4%[70.6 µM]
CCCN1CCN(C(=O)Cc2cccn2-c2ccc(F)cc2)CC1 | -2%
c1cnc2c(c1)NC1(CCCNC1)C(=NC1CCCC1)N2 (configuration not stated) | -5%
O=C(Nc1ccc2n(c1=O)C[C@H]1C[C@@H]2CN(C(=O)c2ccccc2)C1)NC1CCCCC1 | 1%[70.6 µM]
O=C(NC[C@H]1C[C@@H]2CCN1C[C@@H]2CN1CCN(c2ccccc2)CC1)Nc1ccsc1 | -3%
COc1ccc(C(=O)NC[C@H]2C[C@@H]3CCN2C[C@@H]3c2cc(-c3ccc4ccccc4c3)nn2C)cc1 | 1%
Cc1ccccc1CC(=O)N1CCN(C2CCN(CCC(C)C)C2=O)CC1 (configuration not stated) | 12%
Cc1nc(-c2ccccc2Br)cc([C@H]2CN3CC[C@H]2C[C@@H]3CNC(=O)c2ccccc2)n1 | 3%
CC(C)CN1CCNc2cc(-c3ccccc3)ncc2C1 | -22%[70.6 µM]
O=C(O)CCC(=O)N1C[C@@H]2C[C@H](C1)c1ccc(-c3ccc(Cl)cc3)c(=O)n1C2 | 0%[70.6 µM]
CN1CCN(C(=O)Cc2c[nH]c3ncc(-c4cccc(F)c4)cc23)CC1 | 3%[70.6 µM]
O=C(c1cnccn1)N1[C@H]2CC[C@@H]1c1cnc(-c3ccc(F)cc3)nc1C2 | u
COc1ccc(S(=O)(=O)N2[C@H]3CC[C@@H]2c2cnc(C)nc2C3)cc1 | -1%
Cc1ncc2c(n1)C[C@@H]1CC[C@H]2N1C(=O)c1ccoc1 | 9%
O=C(O)COCC(=O)N1C[C@@H]2C[C@H](C1)c1c(-c3ccc4ccccc4c3)ccc(=O)n1C2 | 1%[70.6 µM]
CCCNC(=O)N1[C@H]2CC[C@@H]1c1cnc(-c3ccccc3)nc1C2 | -22%
CN1CCN(C(=O)Cc2c[nH]c3ncc(-c4ccccc4Oc4ccccc4)cc23)CC1 | u
O=C(c1ccc(F)cc1)N1C[C@@H]2C[C@H](C1)c1c(-c3cc4ccccc4s3)ccc(=O)n1C2 | 0%
COCCNC(=O)[C@H]1CN2CC[C@H]1C[C@@H]2Cn1cc(CO)nn1 | 0%[70.6 µM]
C=CCNC(=O)NC[C@H]1C[C@@H]2CCN1C[C@@H]2c1cc(-c2ccco2)nc(C)n1 | 3%[70.6 µM]
O=C(N1[C@H]2CC[C@@H]1c1cnc(-c3ccccc3)nc1C2)C1(c2ccccc2)CC1 | -15%
CCn1nccc1C(=O)N1CCC2(CC1)c1nccn1-c1ccccc1CN2C | -1%
O=C(Cc1cccc(F)c1)N1CCN2CCS(=O)(=O)N(C3CC3)C(=O)C2C1 (configuration not stated) | -8%
CN1CCN2C(=O)N(C3CCOCC3)C[C@H]2C1 | 1%[70.6 µM]
Cc1ccccc1-c1ccc2n(c1=O)C[C@H]1C[C@@H]2CN(C(=O)c2ccc(F)cc2)C1 | 5%[70.6 µM]
COc1ccc2c(c1)C1(CCN(C(=O)Nc3ccc4c(c3)OCO4)C1)C(=O)N2C (configuration not stated) | -1%
CN1CCN(C(=O)Cc2c[nH]c3ncc(-c4cccc(OC(F)(F)F)c4)cc23)CC1 | -1%[70.6 µM]
CN(C)C(=O)C1CN(Cc2cccnc2)CC12CCOCC2 (configuration not stated) | 1%
CC1(C)C(C(=O)N2CCCC(CNC(=O)c3ccc(F)cc3)C2)C1(C)C (configuration not stated) | -1%
COc1cc2c(cc1OC1CCCC1)NC(=O)C21CCN(C(=O)c2cccc(O)c2)CC1 | -22%[70.6 µM]
Cc1cc(C(F)(F)F)nn1CC(=O)N1[C@H]2CC[C@@H]1c1cnc(-c3ccc(F)cc3)nc1C2 | -3%
O=C1CCC2(CCNCC2)CCN1CC1CC1 | 3%
COc1ccc(CCC(=O)N2[C@H]3CC[C@@H]2c2cnc(-c4ccc(F)cc4)nc2C3)cc1 | u
O=C1NC[C@H]2CN(Cc3cccs3)CCN12 | 5%[70.6 µM]
Cc1ncc2c(n1)C[C@@H]1CC[C@H]2N1C(=O)c1ccc2c(c1)OCO2 | 2%
CCCNC(=O)OC[C@H]1C[C@@H]2CCN1C[C@@H]2c1cc(-c2ccc(F)cc2)nn1C | -9%[70.6 µM]
COc1ccc(-c2cc([C@H]3CN4CC[C@H]3C[C@@H]4COC(=O)Nc3ccc(C(C)C)cc3)n(C)n2)cc1OC | 0%
O=C(Nc1ccccc1)Nc1ccc2n(c1=O)C[C@H]1C[C@@H]2CN(C(=O)c2cccs2)C1 | -1%[70.6 µM]
CC[C@H]1CN2CC[C@H]1C[C@@H]2CNCc1cccs1 | 1%[70.6 µM]
COc1cc2c(cc1Oc1ccccc1)NC(=O)C21CCN(C(=O)c2cnccn2)CC1 | 0%[70.6 µM]
CC[C@H]1CN2CC[C@H]1C[C@@H]2CNS(=O)(=O)c1ccc(OC)cc1 | 2%[70.6 µM]
CCCS(=O)(=O)Nc1ccc2n(c1=O)C[C@H]1C[C@@H]2CN(C(=O)Nc2ccc(OC)cc2)C1 | -1%
Cc1cc(C(=O)NCc2c(C)ncc3c2CCNC3)n[nH]1 | 0%
COc1ccc(-c2cc([C@H]3CN4CC[C@H]3C[C@@H]4CNS(=O)(=O)Cc3ccccc3)n(C)n2)cc1OC | 5%
O=C([C@H]1CN2CCC1C[C@@H]2Cn1cc(-c2ccccn2)nn1)N1CCOCC1 (some centres not stated) | 1%[70.6 µM]
Cc1ncc2c(n1)C[C@@H]1CC[C@H]2N1C(=O)Nc1ccc2c(c1)OCCO2 | 5%
Cc1nc(-c2ccco2)cc([C@H]2CN3CC[C@H]2C[C@@H]3CNCc2ccccc2)n1 | -2%[70.6 µM]
C#C[C@H]1CN2CC[C@H]1C[C@@H]2CNC(=O)CCCC(=O)O | 3%[70.6 µM]
CC1CCN(CC2CCCCCN2C(=O)Cc2ccccc2)CC1 (configuration not stated) | -12%
Cc1cc(CN2CCC3(C2)NC(=O)c2ccccc2O3)no1 (configuration not stated) | -3%[70.6 µM]
CN(CCc1ccccn1)C[C@H]1CN2CC[C@H]1C[C@@H]2CNC(=O)c1ccc(C(F)(F)F)cc1 | -2%
COc1ccc(C(=O)NC[C@H]2C[C@@H]3CCN2C[C@@H]3c2cc(-c3ccccc3Br)nc(C)n2)cc1 | -7%
COc1cc2c(cc1Oc1ccccc1)NC(=O)C21CCN(c2nc(C)cnc2C)CC1 | -25%[70.6 µM]
Cc1nc(-c2cccs2)cc([C@H]2CN3CC[C@H]2C[C@@H]3COC(=O)Nc2cccc(C(F)(F)F)c2)n1 | u
COc1ccc(NC(=O)NC[C@H]2C[C@@H]3CCN2C[C@@H]3c2cc(C3CCCC3)nn2C)cc1 | -8%

A stretch taken from the entries so far, for reference:
SMILES | NPR1 antag
Cc1cc(CN2CCC3(C2)NC(=O)c2ccccc2O3)no1 (configuration not stated) | -3%[70.6 µM]
CN(CCc1ccccn1)C[C@H]1CN2CC[C@H]1C[C@@H]2CNC(=O)c1ccc(C(F)(F)F)cc1 | -2%
COc1ccc(C(=O)NC[C@H]2C[C@@H]3CCN2C[C@@H]3c2cc(-c3ccccc3Br)nc(C)n2)cc1 | -7%
COc1cc2c(cc1Oc1ccccc1)NC(=O)C21CCN(c2nc(C)cnc2C)CC1 | -25%[70.6 µM]
Cc1nc(-c2cccs2)cc([C@H]2CN3CC[C@H]2C[C@@H]3COC(=O)Nc2cccc(C(F)(F)F)c2)n1 | u
COc1ccc(NC(=O)NC[C@H]2C[C@@H]3CCN2C[C@@H]3c2cc(C3CCCC3)nn2C)cc1 | -8%

Following part.
SMILES | NPR1 antag
CN1CCNc2cc(Nc3ccc(F)cc3)ncc2C1 | -14%[70.6 µM]
CN(C)Cc1ccccc1-c1ccc2n(c1=O)C[C@H]1C[C@@H]2CN(C(=O)C2CCCCC2)C1 | 3%[70.6 µM]
COc1cc2c(cc1Oc1ccccc1)NC(=O)C21CCN(c2ccnc(C)n2)CC1 | -19%[70.6 µM]
COc1ccc2c(c1)C1(CCN(C(=O)NC3CCCCC3)C1)C(=O)N2 (configuration not stated) | -8%
COc1ccccc1NC(=O)N1C[C@@H]2C[C@H](C1)c1c(C3CCCCC3)ccc(=O)n1C2 | 1%[70.6 µM]
COc1ccc(NC(=O)N2[C@H]3CC[C@@H]2c2cnc(-c4ccccc4)nc2C3)cc1OC | 0%
CC[C@H]1CN2CC[C@H]1C[C@@H]2CNCc1ccc(OC)cc1 | -4%[70.6 µM]
CN(C)C(=O)[C@H]1CN2CCC1C[C@@H]2Cn1cc(CSc2ccccc2)nn1 (some centres not stated) | 2%[70.6 µM]
O=C(O)c1cn(C2CCCCCC2)nn1 | 1%
CN(C)c1ccc(C(=O)NC[C@H]2C[C@@H]3CCN2C[C@@H]3CN2CCN(c3ccccn3)CC2)cc1 | 0%
O=S(=O)(NC[C@H]1C[C@@H]2CCN1C[C@@H]2CN1CCCC1)c1ccc(Cl)cc1 | -1%[70.6 µM]
COC(=O)c1sccc1NC(=O)N1[C@H]2CC[C@@H]1c1cncnc1C2 | 9%
CCCS(=O)(=O)NC[C@H]1C[C@@H]2CCN1C[C@@H]2c1cc(-c2ccc(OC)c(OC)c2)nc(C)n1 | 3%
CC(=O)NCCNC(=O)[C@H]1CN2CCC1C[C@@H]2Cn1cc(CN(C)Cc2ccccc2)nn1 (some centres not stated) | -2%
Cc1cc(C[C@@H]2COC[C@@H]2NC(=O)c2cn(C)c3ccccc23)on1 | 3%

High-throughput results as filed in PubChem.
